B2AR ag: beta2AR agonists driving receptor internalization, primary screen, cell-based, FAP fluorogen, flow cytometry; Beta-2 adrenergic receptor (Homo sapiens), P07550; Am2.2-beta2AR cells; reference of the scale not given here; response, % (test concentration not listed); 0.43% of 340,000 active;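 active means response above a set limit, near 3 SD of response in nonfluorescent compounds, cut at about 42% in these data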;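 further: stock transfer was 100 nL into about 11 µL; a reference agonist was the positive control; negative values mostly stem from fluorescent compounds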
Beta cell apopt: inhibitors of cytokine-induced beta cell apoptosis, primary screen, luminescence | AID 435005, 2010 | protection from apoptosis, % (concentration not given with the values) | INS-1E cytokine-induced death, ATP luminescence, 48 h; percent of positive-control rescue, neutral wells zero | 0.8% of 300,000 active;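 active means all replicates at 75% or more, or half of them and the mean; inconclusive means half reach 75% but not the mean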;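 further: 0% = cytokine-treated negative control wells and 100% = positive control rescue; higher means more ATP so stronger rescue from cytokine killing; wells of about 40 µL received 100 nL stock; the first replicate is given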
LANA-H2A inh: blockers of LANA interaction with H2A/H2B – biochemical, FP readout, HTS, primary screen; Protein LANA1 (Human herpesvirus 8 type P (isolate GK18)), Q9QR71; cell-free LANA-H2A/H2B peptide, fluorescence polarization; inhibition, % (concentration not given with the values); 0.6% of 320,000 active; in the data active means inhibition mostly above about 10%, no sharp cut-off; inactive means mostly below about 6.7%;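 further: stock transfer was 7.5 nL into about 10 µL; 0% = median of vehicle wells and 100% = median of positive control wells; one replicate is shown; the record names a cut of 25% in any replicate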
Target sequence (Q9QR71 whole entry, looked up): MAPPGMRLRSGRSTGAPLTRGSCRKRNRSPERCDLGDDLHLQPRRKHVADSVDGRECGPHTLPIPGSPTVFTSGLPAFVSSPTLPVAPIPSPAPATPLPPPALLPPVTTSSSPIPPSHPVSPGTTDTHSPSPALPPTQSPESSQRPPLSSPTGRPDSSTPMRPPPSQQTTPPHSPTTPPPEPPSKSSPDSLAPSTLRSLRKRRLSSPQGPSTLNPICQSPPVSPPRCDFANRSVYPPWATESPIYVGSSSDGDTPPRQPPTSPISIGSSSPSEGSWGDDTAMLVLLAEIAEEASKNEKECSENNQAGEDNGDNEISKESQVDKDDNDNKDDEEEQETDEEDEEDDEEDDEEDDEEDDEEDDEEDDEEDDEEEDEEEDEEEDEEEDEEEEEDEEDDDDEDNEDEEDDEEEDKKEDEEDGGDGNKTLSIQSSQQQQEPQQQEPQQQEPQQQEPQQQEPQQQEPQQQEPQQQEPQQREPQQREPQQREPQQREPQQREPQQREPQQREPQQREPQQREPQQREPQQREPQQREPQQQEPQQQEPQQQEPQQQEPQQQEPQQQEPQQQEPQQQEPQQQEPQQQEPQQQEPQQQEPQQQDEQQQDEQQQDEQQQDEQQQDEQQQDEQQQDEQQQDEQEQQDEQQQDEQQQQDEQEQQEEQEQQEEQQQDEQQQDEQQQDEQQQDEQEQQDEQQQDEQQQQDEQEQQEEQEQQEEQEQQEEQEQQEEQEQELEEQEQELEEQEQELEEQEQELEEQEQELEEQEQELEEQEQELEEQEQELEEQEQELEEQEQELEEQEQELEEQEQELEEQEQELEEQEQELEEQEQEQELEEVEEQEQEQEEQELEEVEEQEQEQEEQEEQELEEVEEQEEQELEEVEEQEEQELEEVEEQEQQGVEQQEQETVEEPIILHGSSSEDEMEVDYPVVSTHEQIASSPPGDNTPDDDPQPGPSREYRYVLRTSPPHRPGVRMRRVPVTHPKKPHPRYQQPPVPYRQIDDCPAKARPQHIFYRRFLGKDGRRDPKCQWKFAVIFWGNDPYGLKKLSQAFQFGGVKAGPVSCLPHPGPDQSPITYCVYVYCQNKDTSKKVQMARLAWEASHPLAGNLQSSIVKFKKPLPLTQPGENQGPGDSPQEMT
T cruzi repl: inhibitors of intracellular T. cruzi growth, primary screen, luminescence, NIH3T3 host cells; inhibition, % (concentration not given with the values); 1.4% of 300,000 active; T. cruzi beta-gal in NIH3T3, 90 h;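 active means mean inhibition across valid replicates above about 55%, limit read from the data; inconclusive means mean below that limit but half or more replicates reach it; inactive means mean below it, under half of replicates reach it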;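 further: signal also drops with host cell toxicity which is not excluded here; 0% = plate median of DMSO wells and 100% = zero luminescence signal; higher percent means less beta-gal luminescence so fewer parasites; stock transfer was 50 nL into about 50 µL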
rRNA inh HTS: reduced GFP signal of wild-type E. coli, primary screen, bacterial rRNA inhibitor project, GFP/RFP fluorescence, OD600, single point; 1.6% of 350,000 active; GFP signal change (wild-type ribosome), % (test concentration not listed); E. coli WT GFP vs humanized-ribosome RFP mutants, 24 h; hits give low values; DMSO median 0, no signal -100; AID 720706, 2013;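 active means significant combined selectivity score with lowered wild-type GFP, culture density cut under 30%, mutant RFP and density less affected; inactive means any of these conditions unmet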; further: one replicate is shown; some compounds called inactive have numbers as strong as hits
Calb FLC: C. albicans growth inhibition with fluconazole, primary screen, CaCi-2 strain, Alamar Blue fluorescence. C. albicans CaCi-2 (fluconazole-resistant clinical isolate) + fluconazole, 48 h. growth inhibition, % (concentration not given with the values). 0.57% of 300,000 active;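 active means most replicates above 75%; inconclusive means exactly half above 75%; inactive means most below 75%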;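 further: all wells also contain fluconazole at 8 µg/ml as a sub-toxic cotreatment; 0% = median of DMSO wells and 100% = median of geldanamycin control wells; wells of about 8 µL received 7.5 nL stock; the first replicate is given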
ALR H2O2 inh: inhibitors of human ALR sulfhydryl oxidase, primary screen, biochemical, H2O2 detection, HRP-luminol luminescence, single point; purified ALR, DTT oxidation; inhibition, % (test concentration not listed); 3.8% of 290,000 active;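 active means mean and each replicate at 75% or more; inconclusive means only one of the two met; inactive means neither met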;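 further: stock transfer was 7.5 nL into about 7.5 µL; 0% = neutral wells and 100% = wells with inactivated enzyme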
A1 inh: caspase 3/7 activation in MEF A1-2A-BIM cells, primary screen, A1 inhibitor project, cell-based, luminescence, HTS | 0.066% of 330,000 active | caspase activation, % (concentration not given with the values) | Caspase-Glo 3/7 luminescence, 3 h; percent of clofoctol response, vehicle zero;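 active means over half of replicate activation scores above 10%, or exactly half above 10 with the replicate mean above 10; inconclusive means replicate mean below 10 yet half the replicates above 10; inactive means over half of replicates below 10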;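 further: wells of about 30 µL received 50 nL stock; many hits fall short of the cut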
rRNA inh HTS OD600: second read-out of rRNA inh HTS, no call of its own (marks repeat the call); OD600 change, %; measured here: OD600 growth;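 optical density of the mix in the first replicate; 0 = DMSO median and -100 = no signal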
rRNA inh HTS RFP: further read-out of rRNA inh HTS, marked with its call; RFP signal change, %; measured here: RFP humanized mutant strains;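 first replicate; 0 = DMSO median and -100 = no signal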
An asterisk follows results filed as active; ? = inconclusive; . = not tested or not shown. Some of the compounds tested, so the mix of outcomes need not match the whole.

SMILES	B2AR ag	Beta cell apopt	LANA-H2A inh	T cruzi repl	rRNA inh HTS	rRNA inh HTS OD600	rRNA inh HTS RFP	Calb FLC	ALR H2O2 inh	A1 inh
Cc1cc(C)cc(N2C(=O)C3NN=C(C(=O)OCc4ccccc4)C3C2=O)c1 (configuration not stated)	-2	-7	-0.2	-3	.	.	.	-9	6	0.0
CNC1(c2nnnn2-c2c(C)cccc2C)CCOC(C)(C)C1 (configuration not stated)	3	1	1.5	4	1	9	-1.8	0	.	-0.3
CCN(CC)C(=O)CSc1nc2c(c(-c3cccnc3)c1C#N)CCCC2	-1	-8	-2.3	12	-26	-33	-8.8	-11	-6	0.5
O=C(OCC#CCSc1nnc(-c2cccc3ccccc23)o1)c1cc2ccccc2o1	-8	-1	0.6	.	-3	9	-5.8	.	24	-0.5
CCOc1ccc(N(CC)S(=O)(=O)c2ccc3c(c2)oc(=O)n3C)cc1	-6	-3	-0.9	3	.	.	.	18	-8	0.7
CCC(NC(=O)c1cccc(Cn2nc(C)c([N+](=O)[O-])c2C)c1)c1ccc(C(C)C)cc1 (configuration not stated)	-1	6	2.2	37	.	.	.	7	-6	0.2
COc1cccc(-c2ccc3ncnc(NCc4cc(C)cs4)c3c2)c1	8	2	-0.3	.	-20	-23	-8.2	.	-1	-0.5
Cc1cc(F)ccc1S(=O)(=O)Nc1ccccc1C(=O)Nc1ccccc1-c1nc2ccccc2[nH]1	29	116*	0.4	49	.	.	.	?	-3	0.7
CC(C)(C)c1cc(C(=O)NCCCn2ccnc2)cc(C(C)(C)C)c1	-3	7	1.3	15	-44	-69	-5.8	46	.	-0.1
CCOC(=O)CN1C(=O)N[C@@H](c2cccc(C(F)(F)F)c2)[C@H](C(C)=O)[C@H]1C	-4	-7	-3.1	-8	14	11	8.7	-8	-15	3.0
CC(=O)c1cccc(N(C(=O)c2ccco2)C(C(=O)NC2CCCC2)c2ccccc2F)c1 (configuration not stated)	4	-6	1.5	19	-3	12	-2.5	2	.	0.4
O=C(NC1CCCc2ccccc21)C1CCN(S(=O)(=O)c2cccc3nonc23)CC1 (configuration not stated)	9	2	2.0	9	.	.	.	?	4	0.7
CCOc1ccc2[nH]c(=O)c(CN(CCN3CCOCC3)Cc3nnnn3C(C)(C)CC)cc2c1	1	-7	1.9	4	-1	-1	-1.7	-17	-17	0.5
Cc1cccc(OCC(=O)NNC(=O)Nc2cccc(Cl)c2)c1C	1	-10	-4.4	-4	.	.	.	8	-6	0.4
COc1cccc(/C(C)=N/N=C(\C)c2cccc(OC)c2)c1	6	-8	-9.3	-13	0	4	-2.1	11	31	-5.0
Cc1oc2cc3oc(=O)c(CCC(=O)NCCCn4ccnc4)c(C)c3cc2c1C	-3	23	-2.2	-1	-22	-18	-3.0	1	.	0.3
CSc1ccccc1NC(=S)NCc1ccc(Cl)cc1	5	0	2.0	-14	-14	-19	-2.8	-3	-4	0.3
Cc1[nH]c(=O)nc2c1CCC2	1	-5	-1.9	-8	10	13	3.5	-23	-9	1.1
NC(=O)CC(NC(=O)c1ccc(Br)cc1)c1ccc(N2CCCCCC2)c([N+](=O)[O-])c1 (configuration not stated)	-22	2	-1.5	10	1	-3	-1.4	-14	-1	-0.5
COC(=O)C(NC(=O)C(NC(=O)c1ccccc1)C(C)C)C(C)C (configuration not stated)	-15	-4	-3.8	1	.	.	.	-23	-10	.
COc1ccc(NC(=O)NCc2ccco2)c(OC)c1	-2	4	-1.2	-3	17	10	2.7	-5	-8	0.1
COc1ccc(-c2cnn3c(N)c(S(=O)(=O)C(C)(C)C)cnc23)cc1	9	.	-2.6	32	.	.	.	-12	-7	0.2
O=C(Cn1cc(S(=O)(=O)Cc2ccc([N+](=O)[O-])cc2)c2ccccc21)N1CCOCC1	-2	-3	1.3	-1	8	-3	3.3	.	-3	-0.4
COc1ccccc1C(=O)Nc1nsc(-c2ccccc2)n1	-8	-4	-1.5	3	-22	-27	-9.3	3	.	-7.1
CCOc1cc(CNCCc2ccccc2)ccc1OCC(=O)NC(C)(C)C	-4	-1	1.7	36	.	.	.	-4	-18	0.7
SMILES	B2AR ag	Beta cell apopt	LANA-H2A inh	T cruzi repl	rRNA inh HTS	rRNA inh HTS OD600	rRNA inh HTS RFP	Calb FLC	ALR H2O2 inh	A1 inh
CS(=O)(=O)N1CCN(C(=O)COc2ccc3ccccc3c2)CC1	-3	.	.	3	2	2	0.8	-3	.	.
O=c1c2cc(N3CCOCC3)ccc2[nH]c(=S)n1CCc1ccccc1	1	0	-6.9	38	-29	-23	-8.9	2	.	-1.1
CC1CC(=O)Nc2ccccc2N1C(=O)CSc1nnnn1C(C)C (configuration not stated)	-6	1	-0.1	.	9	19	-1.4	.	-3	-1.2
Cc1cnc(C(=O)Nc2ccccc2F)cn1	3	1	-1.8	-22	.	.	.	4	-1	-5.4
CCOC(=O)N1CCN(CC(O)COCc2ccccc2)CC1 (configuration not stated)	0	-1	-5.2	-5	.	.	.	-7	-16	-0.4
COc1ccc(N(CC(=O)NC(C)c2ccccc2)S(=O)(=O)c2c(C)noc2C)cc1 (configuration not stated)	-5	0	-6.1	14	-1	9	0.7	46	-3	0.4
CC[C@@]1(C(=O)OC)N[C@H](CN(C)S(=O)(=O)c2ccc(OC)cc2)[C@@H]2C(=O)N(C)C(=O)[C@@H]21	-3	-2	-3.0	.	1	12	0.6	.	.	1.1
Fc1ccc(-n2nnc(-c3ccccc3)n2)cc1	12	-9	-1.3	-12	-3	0	-3.3	21	-6	0.2
O=c1[nH]c(=O)c2cc([N+](=O)[O-])cc([N+](=O)[O-])c2[nH]1	2	-11	1.9	72*	41	19	66	8	-64	0.2
COc1ccc(Cl)cc1NS(=O)(=O)c1cccc(C(=O)NC2CCC(O)CC2)c1 (configuration not stated)	7	-3	2.5	3	-4	-3	-0.1	-2	-6	1.4
C=CCOc1c(Cl)cc(CNc2ccc(N(C)C)cc2)cc1OC	23	26	2.2	34	.	.	.	13	56	0.1
CCNC(=O)NC(=O)C(C)Oc1ccc(Br)cc1Br (configuration not stated)	-3	-6	-1.1	-2	4	4	-2.9	-11	0	-0.2
COC(=O)c1cc(Br)c(=O)n(CCN2CCCCC2)c1	-2	-4	-0.1	-7	.	.	.	-1	-6	0.3
CCOc1cc(C2C3=C(CC(C)(C)CC3=O)N(CCCOC)C3=C2C(=O)CC(C)(C)C3)ccc1OC	5	.	5.1	6	11	4	3.7	1	-5	0.2
CCN(CC)C(=O)CN(c1ccc(F)c(Cl)c1)S(C)(=O)=O	-1	0	0.3	6	.	.	.	3	.	0.8
CCn1nnnc1NC(=O)c1cc(Cl)c(OC)c(Cl)c1	-2	-7	-0.2	.	-3	4	-0.2	76*	-3	0.0
CCCCCO	-2	-4	-12	.	2	3	-0.5	.	-12	0.1
FC(F)(F)c1cccc(Oc2nc(-c3ccccc3)nnc2C(F)(F)F)c1	18	-7	2.5	-11	.	.	.	8	55	0.4
CS(=O)(=O)N(CC(=O)N1CCN(c2ccccc2F)CC1)C1CCCCC1	-1	-3	1.7	-1	2	2	2.0	11	0	-0.3
O=C(Cc1ccccc1[N+](=O)[O-])NCc1ccc2c(c1)OCO2	-7	-2	0.3	-11	.	.	.	-22	.	0.0
O=C(OCCCN=C1NS(=O)(=O)c2ccccc21)c1ccccc1	6	-1	4.9	2	1	-4	1.3	-5	-5	?
Cc1ccc(CNC(=O)COC(=O)C2CCN(S(=O)(=O)c3cccs3)CC2)cc1	2	-1	3.5	-12	-16	-18	-4.1	15	-16	0.2
CC1=C(C(=O)Nc2ccc(C)cc2)C(c2ccco2)NC(=O)N1 (configuration not stated)	6	-7	-0.9	-6	.	.	.	-8	21	0.1
COc1ccccc1NC(=O)NCc1ccco1	7	-2	-1.1	7	17	14	0.7	-11	2	-0.1
COc1ccc(C(C)=O)cc1CC(=O)NC1CCCCCC1	-4	-1	1.3	-3	-1	-3	1.9	7	.	0.8
SMILES	B2AR ag	Beta cell apopt	LANA-H2A inh	T cruzi repl	rRNA inh HTS	rRNA inh HTS OD600	rRNA inh HTS RFP	Calb FLC	ALR H2O2 inh	A1 inh
COc1cc(/C=C2\SC(N)=NC2=O)cc(OC)c1	18	-12	1.1	3	-14	-27	-1.0	5	8	0.8
CC1=C(C(=O)OCc2cc(C)on2)N2C(=O)[C@@H](NC(=O)OCc3cc(C)on3)[C@H]2SC1	-2	1	2.2	.	13	14	1.7	.	-1	-0.2
Cc1cc(C)c2oc(C(=O)Nc3ccc(S(=O)(=O)Nc4nccc(C)n4)cc3)cc(=O)c2c1	-2	-6	1.9	-14	12	13	-2.1	42	1	-2.2
COc1cc(NC(=O)CSc2nnc3c(C)cc4c(C)ccc(C)c4n23)c(C(=O)O)cc1OC	-2	-4	1.7	-13	4	12	-1.7	24	-1	-0.2
O=C(/C(C=Nc1cccc(C(F)(F)F)c1)=C(/O)c1ccco1)C(F)(F)F	3	.	-3.7	9	.	.	.	-8	36	-0.8
CC(=O)Nc1ccc(-c2csc(NC(=O)Cc3ccccc3F)n2)cc1	1	-4	0.1	-14	-18	-43	-4.7	0	3	-0.4
Cc1c(/C=N/NC(=O)c2cc(Br)ccc2O)c(=O)n(C)c(=O)n1C	-4	-5	2.5	2	6	8	-2.4	-3	-7	0.0
c1ccc2nc3[nH]cnc3nc2c1	4	-5	0.6	-2	4	11	3.9	11	1	-0.1
COC(=O)Cn1cnc2c1c(=O)n(C)c(=O)n2C	-12	-3	2.2	-10	.	.	.	-2	-3	0.7
CCN1CCN(C(=O)c2ccc(CN(c3ccccc3)S(=O)(=O)c3ccccc3)cc2)CC1	6	-1	1.0	-5	.	.	.	-10	.	0.1
COC(=O)C1=C(C(=O)c2ccccc2)C(c2ccc(OC)c(OC)c2)Nc2nnnn21 (configuration not stated)	7	-2	5.3	-9	.	.	.	3	-1	0.4
CCOC(=O)c1c(NC(=O)CCC(=O)N2CCOCC2)sc2c1CC(C)(C)OC2	-17	-7	-7.1	-9	.	.	.	-4	-5	0.4
Cc1nn(-c2ccccc2)c(Cl)c1C1C(C#N)=C(N)OC2=C1C(=O)CCC2 (configuration not stated)	-6	-2	0.3	-5	.	.	.	11	3	0.2
NC(=O)c1c(NC(=O)CSc2nc(N)cc(=O)[nH]2)sc2c1CCCC2	-6	3	0.3	-8	3	-2	-0.8	2	36	0.1
C/C=C(\C)C(=O)NCCN1C2=NC[C@@H](C)N2C[C@@H]1Cc1ccc(OC)cc1	-8	-7	-6.3	-5	9	10	1.7	-13	-16	0.3
CCN(CC)S(=O)(=O)c1cc(NC(=O)C2=COCCO2)ccc1Cl	115*	2	-1.7	4	-2	12	-1.5	5	.	-0.1

Screening results from PubChem BioAssay.
